Screening data deposited in PubChem BioAssay by several laboratories.
CSC inhib: cancer stem cell inhibition. AID 2717. 1.1% of 300,000 active. cancer stem cell-like cells viability, luminescence. inhibition, % at 7.5 µM;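 active means mean at 75% or more and at least half the replicates too; inconclusive means mean and replicates disagree; tested in HMLE shEcad cells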;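 further: 0% = median of negative and 100% = median of positive control wells; the first replicate is given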
eIF4H FP inh: inhibitors of RNA binding by human eIF4H. 0.94% of 290,000 active. inhibition, % at 35 µM. eIF4H fluorescence polarization binding assay. AID 2012;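 active means 50% or more with normal probe brightness, or confirmed in later tests; inconclusive means above 50% with abnormal brightness, or retests that disagree; inactive means below 50% or failed in later tests; about a fifth of its hits are not listed in these tables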;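 further: calls also rest on retests at 20 µM and on dose response follow-up; 0% = protein and probe with vehicle and 100% = probe without protein; strong numbers were not always called active; many hits fall short of the cut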
HIV Env fusion: blocks HIV Env-driven cell-cell fusion | 1.1% of 360,000 active | HeLa-JRFL Env/CEM21 cell fusion, luciferase | inhibition, % at 12.3 µM | AID 651610;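 active means mean replicate inhibition score of at least 50 and every replicate individually at or above 50; inconclusive means only one of the two criteria met; inactive means mean below 50 and not all replicates reaching 50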;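 further: 0% = plate neutral controls and 100% = maraviroc near 300 nM; one replicate is shown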
PABP polyA inh: PABP-poly(A) binding inhibition; PABP-poly(A) RNA binding, fluorescence polarization; inhibition, % at 35 µM; 1% of 290,000 active; AID 2014;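 active means 50% or more with normal probe brightness, or confirmed in later tests; inconclusive means above 50% with abnormal brightness, or retests that disagree; inactive means below 50% or failed in later tests; about a fifth of its hits are not listed in these tables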;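 further: calls also rest on retests at 20 µM and on dose response follow-up; controls were probe without protein and protein plus probe with vehicle; some compounds called inactive have numbers as strong as hits; many hits fall short of the cut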
Target sequence (P11940 whole entry, looked up): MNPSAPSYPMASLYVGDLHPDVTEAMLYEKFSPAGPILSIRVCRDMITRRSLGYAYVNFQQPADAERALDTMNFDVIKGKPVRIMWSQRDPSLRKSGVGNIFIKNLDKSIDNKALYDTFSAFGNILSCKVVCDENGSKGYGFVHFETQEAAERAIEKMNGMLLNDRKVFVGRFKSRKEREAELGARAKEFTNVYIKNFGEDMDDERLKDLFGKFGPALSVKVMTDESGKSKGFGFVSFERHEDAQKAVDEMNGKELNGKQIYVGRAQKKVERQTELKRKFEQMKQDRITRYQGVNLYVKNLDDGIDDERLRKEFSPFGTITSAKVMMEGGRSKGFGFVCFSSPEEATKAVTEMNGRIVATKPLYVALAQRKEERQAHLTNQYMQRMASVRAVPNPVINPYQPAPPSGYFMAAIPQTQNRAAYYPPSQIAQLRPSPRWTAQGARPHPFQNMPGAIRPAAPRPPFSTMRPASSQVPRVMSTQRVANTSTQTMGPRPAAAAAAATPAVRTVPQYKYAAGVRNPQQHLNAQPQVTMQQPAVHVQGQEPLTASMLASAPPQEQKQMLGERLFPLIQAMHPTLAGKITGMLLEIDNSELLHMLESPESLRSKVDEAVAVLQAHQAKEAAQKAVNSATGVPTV
UUG fidelity: modulators of start codon recognition fidelity in yeast. S. cerevisiae UUG-firefly luciferase reporter, luminescence/redox ratio. activity score, % at 18.7 µM. 0.13% of 350,000 active. AID 602363;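 active means replicate mean at a twofold rise or more, about +100% in these data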;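 further: firefly luciferase made from a UUG start codon reports start codon fidelity; reporter light over untreated wells divided by growth signal over untreated wells; some hits fall short of that in this replicate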
MT1-MMP act inh: blocks activation of human MT1-MMP; P50281; HT1080 RFP-PRO-GFP cells, GFP/RFP ratio fluorescence, overnight; percent of plate control window, DMSO zero; GFP/RFP ratio change, % at 20 µM; 0.061% of 360,000 active; AID 651647;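 active means GFP/RFP ratio change of at least 30% with cell ATP level not reduced by more than half and red fluorescence within 50% of control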; further: strong numbers were not always called active
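Assay system: RFP-PRO-GFP reporter HT1080 cells; read-out basis: GFP/RFP fluorescence ratio; benchmarks: DMSO wells and RFP-L50D-GFP cells; doses: 20 µM single dose, 1% DMSO; schedule: overnight cell settling, then overnight compound exposure, 37 °C, 5% CO2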
Rce1 inhib: yeast Ras-converting enzyme inhibition. Q03530. yeast membranes, quenched prenylated peptide cleavage fluorescence. calls only. 0.27% of 290,000 active;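 active means fall in fluorescence gain of 50% or more versus controls, with final raw signal at or below 3038400; inconclusive means same 50% fall but final raw signal above 3038400; inactive means fall in fluorescence gain under 50%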;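 further: plate controls were neutral control wells for no effect and wells lacking membranes for full effect; tested at 10 µM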
Target sequence (Q03530 whole entry, looked up): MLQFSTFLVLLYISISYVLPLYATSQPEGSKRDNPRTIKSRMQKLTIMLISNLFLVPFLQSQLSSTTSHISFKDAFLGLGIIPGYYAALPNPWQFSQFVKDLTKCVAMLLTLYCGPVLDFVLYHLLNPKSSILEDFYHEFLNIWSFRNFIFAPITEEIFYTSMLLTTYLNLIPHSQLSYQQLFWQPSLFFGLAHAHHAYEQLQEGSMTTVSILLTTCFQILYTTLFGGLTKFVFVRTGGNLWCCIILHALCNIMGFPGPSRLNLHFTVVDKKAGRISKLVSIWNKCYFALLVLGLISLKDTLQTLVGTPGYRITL
eIF4H FP inh retest: second read-out of eIF4H FP inh, no call of its own (marks repeat the call); inhibition, %; compound at 20 µM; confirmation average;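 mean of two retest wells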
PABP polyA inh retest: also measured in PABP polyA inh; calls as there; inhibition, %; compound at 20 µM; confirmation repeats;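 mean of two retest wells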
MT1-MMP act inh RFP: recorded beside MT1-MMP act inh, whose call it bears; RFP signal change, %; measured here: RFP expression control read;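 0 = vehicle wells; hits needed this value within 50% of zero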
An asterisk follows results filed as active; i = inactive; ? = inconclusive; . = no result given; [ ] = dose if it differs, or a comment.

SMILES	CSC inhib	eIF4H FP inh	HIV Env fusion	PABP polyA inh	UUG fidelity	MT1-MMP act inh	MT1-MMP act inh RFP	Rce1 inhib	others
CSc1ccccc1OCc1cc(C(=O)NC(C)CCn2cccn2)no1 (stereo not drawn)	-8	-4	-10	-4	-2	4	4	i
Cc1cc(COc2ccccc2)oc1C(=O)O	11	-13	-13	-6	-64	-3	1	i
CC(=O)n1cc([C@H]2C=C(C(=O)N3CCN(Cc4ccccc4)CC3)O[C@@H](OCCCCO)C2)c2ccccc21	-24	10	-19[16.7 µM]	0	-1	-1	-1	i
COc1cccc(CNS(=O)(=O)c2c(C)nc3sccn3c2=O)c1	1	7	-6	0	-11	1	4	i
COc1cccc(NC(=O)NCCCCc2ccccc2)c1	10	-6	-30	-1	0	3	3	i
COc1ccc(C(C(=O)NC(C)(C)C)N(Cc2ccccc2)C(=O)CCC(=O)Nc2cc(C)on2)cc1 (stereo not drawn)	2	-2	0	-7	.	-4	-2	i
CCOC(=O)C(=Cc1c[nH]c2ccc(S(=O)(=O)N(C)C)cc12)C(=O)OCC	42	-9	-3	5	-4	9	-27	i
CCOc1cc(C2NN=C(c3ccccc3)S2)ccc1OCc1ccccc1Cl (stereo not drawn)	22	-5	-283	-6	-24	-5	-4	i
CCCOc1cc(C)c(S(=O)(=O)N2CCN(C)CC2)cc1C	-8	-4	.	3	-20	-3	-7	i
O=C(Nc1nccs1)c1ncc(Cl)c(Cl)c1Cl	13	-7	-11	10	-12	-28	-5	i
Oc1ccc(/C=N/Nc2nn3cnnc3c3ccccc23)cc1	4	6	9	6	.	7	3	i
OCC[C@H]1C[C@H](O)[C@@H](O)[C@]2(CCc3ccccc3CO2)O1	-2	.	-13	.	-5	0	3	.
N#Cc1cc([N+](=O)[O-])ccc1Oc1cccc(/C=N/NC(=O)c2cccc(Cl)c2)c1	36	-2	.	8	-1	5	-15	i
CC(=O)N1c2ccc(S(=O)(=O)N3CCC(C(=O)Nc4cccc(C)n4)CC3)cc2CC1C (stereo not drawn)	4	10	13	3	4	13	-29	i
O=C(CNC(=O)c1ccccc1F)N/N=C/c1cccs1	-5	-4	4	9	-6	2	3	i
O=C(NC(Cc1ccccc1)C(=O)O)/C(=C/c1ccc(Br)cc1)NC(=O)c1ccc(Br)o1 (stereo not drawn)	1	0	4	-2	-1	0	5	.
CCc1ccc(N(C(=O)CNC(=O)c2ccco2)C(C(=O)NCC2CCCO2)c2ccccc2)cc1 (stereo not drawn)	-8	-1	-4	-2	.	-4	-2	i
Cc1ccc(-n2nc3c(=O)n(CCCC(=O)NCc4ccccc4F)nc(C)c3c2C)cc1	6	-6	9	-11	.	7	3	i
Nc1c(Cl)ncnc1NCc1ccccc1	-10	-2	3	4	-12	2	-15	i
NC1=NC[C@H](Cc2ccccc2)N1CCCCC1CCCCC1	20	2	19	-5	-8	-2	-14	i
O=C(COc1ccccc1F)NNC(=O)Cn1c(=O)cnc2ccccc21	-17	.	.	.	-12	3	3	.
COc1ccc(N/N=C(\C#N)C(=N)N2CCOCC2)cc1	8	-9	19	6	.	-2	-1	i
CCOC(=O)c1cc(OC(=O)c2cccc([N+](=O)[O-])c2)n(-c2ccccc2)n1	-6	-1	-27	5	-17	0	7	.
COc1ccc(S(=O)(=O)N2CCCOC2CNC(=O)C(=O)NCCc2ccco2)cc1C (stereo not drawn)	17	-6	9	12	3	-9	-14	i
Cc1nn(Cc2ccc(Cl)cc2)c(C)c1NC(=O)c1cc(C(C)C)on1	5	-8	28	11	-25	-2	-26	i
Cc1sc2ncnc(SCC(=O)N3CCC(c4noc5ccc(F)cc45)CC3)c2c1C	-7	9	-21	-4	-5	-2	-1	i
COc1ccc(-n2nc(C(=O)NCC(=O)NC(C)C)c3ccccc3c2=O)cc1Cl	2	9	3	-6	-21	0	0	i
COc1ccc(C2Nc3ccccc3C(=O)N2c2ccc(F)cc2)cc1Cn1nnc2ccccc21 (stereo not drawn)	-1	-15	.	-7	-11	8	2	i
CC(C)CCNc1ncnc2c1nnn2Cc1ccccc1Cl	.	1	2	3	.	-2	3	i
O=C(CC1Nc2ccccc2NC1=O)c1ccccc1 (stereo not drawn)	-9	130	.	128	.	.	.	i	eIF4H FP inh retest=5;PABP polyA inh retest=44

3 compounds drawn at random from the list so far, as already listed:
SMILES	CSC inhib	eIF4H FP inh	HIV Env fusion	PABP polyA inh	UUG fidelity	MT1-MMP act inh	MT1-MMP act inh RFP	Rce1 inhib	others
O=C(NC(Cc1ccccc1)C(=O)O)/C(=C/c1ccc(Br)cc1)NC(=O)c1ccc(Br)o1 (stereo not drawn)	1	0	4	-2	-1	0	5	.
OCC[C@H]1C[C@H](O)[C@@H](O)[C@]2(CCc3ccccc3CO2)O1	-2	.	-13	.	-5	0	3	.
Cc1sc2ncnc(SCC(=O)N3CCC(c4noc5ccc(F)cc45)CC3)c2c1C	-7	9	-21	-4	-5	-2	-1	i

The list continues.
SMILES	CSC inhib	eIF4H FP inh	HIV Env fusion	PABP polyA inh	UUG fidelity	MT1-MMP act inh	MT1-MMP act inh RFP	Rce1 inhib	others
c1cc2c3c(cccc3c1)-c1cnccc1-2	.	.	-6	.	9	0	-2	.
c1ccc2sc(N3CCOCC3)nc2c1	-3	4	-56	-1	-18	2	2	i
O=C(NNC(=O)c1cc(-c2ccc(Cl)cc2Cl)nc2ccccc12)Nc1ccccc1	-11	-2	.	3	-6	3	-12	i
COCCNC(=S)N1C2CCC1CC(NC(=O)NC13CC4CC(CC(C4)C1)C3)C2 (stereo not drawn)	-8	6	.	3	-11	2	0	i
CC(O)CCC(=O)NCCNC(=O)CCC(C)O (stereo not drawn)	-15	3	-2	1	-1	2	1	i
O=C(NC(=S)Nc1nc(-c2ccccc2)cs1)c1cccs1	5	-1	.	2	-12	7	4	i
Nn1c(-c2ccco2)n[nH]c1=S	2	3	-1	-1	.	17	1	i
COc1ccc(C(=O)C2CCCN(C(=O)Cn3cncn3)C2)cc1OC (stereo not drawn)	7	-3	-10	-7	-14	-1	3	i
O=C1OC(N2C(=O)CC[C@H]2C(=O)Nc2ccc(F)c(F)c2)c2ccccc21 (stereo partly drawn)	-5	7	.	5	-20	-3	0	i
Cc1c(Br)c([N+](=O)[O-])nn1CC(=O)Nc1ccc2nc3n(c(=O)c2c1)CCCC3	-6	-1	-5	6	-6	-2	-3	i
CCCN(CCC)S(=O)(=O)c1ccc(Cl)c(OC)c1	.	4	8	-10	-16	-2	-1	i
CNC(=O)Cc1csc2ccc(C)cc12	4	6	-52	5	-4	0	3	i
CCCCn1c(CN2C(=O)c3ccccc3C2=O)nc2ccccc2c1=O	-6	-5	.	-13	-10	-3	-2	i
Cc1ccnn1CC(=O)N/N=C/c1c[nH]c2ccccc12	-8	2	5	13	-15	-1	2	i
COC(=O)c1ccc(C2c3[nH]c4ccccc4c3C[C@H]3C(=O)N(C)CC(=O)N23)cc1 (stereo partly drawn)	4	3	-5	1	-2	3	4	i
CC1(C(=O)O)CCCN(C(=O)c2ccc(F)cc2Cl)C1 (stereo not drawn)	.	.	-28	.	-24	2	4	.
Cc1cccc(NC(=O)c2nc[nH]c2C(=O)Nc2cc(Br)ccc2F)c1	.	.	-11	.	-4	-1	-2	.
CCOc1ccc(S(=O)(=O)NCCC(=O)NCC2CCCO2)cc1 (stereo not drawn)	.	.	-7	.	-8	-1	4	.
Cc1ccc(C)c(N(C(=O)Cc2cccs2)C(C(=O)NC2CCCC2)c2ccc(C)o2)c1 (stereo not drawn)	3	-5	21	-2	-20	3	7	i
CCN1CCN(CCCNC(=O)c2cc3sccc3n2CC)CC1	2	2	-4	-10	-14	1	4	i
COC(=O)c1c(NC(=O)Cc2cccs2)sc2c1CCCC2	7	13	.	-4	.	-2	-5	i
CCOC(=O)Cc1nc(-c2ccccc2)n[nH]1	-1	-1	-3	-6	-7	-4	0	i
CC(=O)N1CC23C=CC(CC2CC12CCCCCC2)O3 (stereo not drawn)	5	0	-2	-1	1	-2	-6	i
COc1c2c(c(OC)c3ccccc13)[C@]1(OC2)O[C@H](CCO)C[C@H](O)[C@H]1O	.	.	5	.	8	8	2	.
CCOC(=O)c1c(C)[nH]c(=S)c(C#N)c1-c1ccc(OC)cc1	-9	-8	-37	-4	-31	-26	1	i
Cc1ccc(C(=O)N2CCN(S(=O)(=O)c3ccccc3C#N)CC2)cc1S(=O)(=O)N1CCOCC1	.	.	-10	.	-3	-4	2	.
CNC(=O)CC1C(=O)N(c2ccc(Cl)cc2)C(=S)N1CCc1ccc(OC)c(OC)c1 (stereo not drawn)	6	-17	-16	7	.	5	-3	i
NNC(=O)CN1C(c2ccccc2)=Nc2ccc(Br)cc2C1c1ccccc1 (stereo not drawn)	0	0	?	19	.	1	0	i
Cc1ccc(C2=NN(S(C)(=O)=O)C(c3ccc4nccnc4c3)C2)cc1 (stereo not drawn)	3	-4	11	-7	.	-4	2	i
Cc1cc(C)c(CSc2nnnn2-c2ccc(C(=O)O)cc2)c(C)c1	-5	-6	-13	-2	.	6	6	i

The last three compounds of the part above lead into the next.
SMILES	CSC inhib	eIF4H FP inh	HIV Env fusion	PABP polyA inh	UUG fidelity	MT1-MMP act inh	MT1-MMP act inh RFP	Rce1 inhib	others
NNC(=O)CN1C(c2ccccc2)=Nc2ccc(Br)cc2C1c1ccccc1 (stereo not drawn)	0	0	?	19	.	1	0	i
Cc1ccc(C2=NN(S(C)(=O)=O)C(c3ccc4nccnc4c3)C2)cc1 (stereo not drawn)	3	-4	11	-7	.	-4	2	i
Cc1cc(C)c(CSc2nnnn2-c2ccc(C(=O)O)cc2)c(C)c1	-5	-6	-13	-2	.	6	6	i
O=C(NCC1CCCO1)C1C2C=CC3(CN(Cc4cccs4)C(=O)C13)O2 (stereo not drawn)	0	-13	-2	5	-5	2	1	i
Cc1cc(=S)[nH]c2c(C)cccc12	-26	-7	.	8	-25	-1	3	i
COc1ccccc1-c1cc(C(=O)Nc2sc3c(c2C#N)CCC(C)C3)c2ccccc2n1 (stereo not drawn)	3	-6	20	5	-12	2	2	i
CC(=O)c1ccc(OCC(O)CN2C(C)CCCC2C)cc1 (stereo not drawn)	-2	4	-25	-2	-4	-1	6	i
COc1cc(/C=C(\C#N)C(=O)c2c[nH]c3ccccc23)cc(OC)c1O	-6	?	-14	-1	-12	-122	6	i
COc1ccc(CCNC(=O)COC(=O)c2sc(C)nc2C)cc1	.	.	9	.	-2	1	0	.
Cc1noc(C)c1COc1cccc(C(=O)OCC(=O)NCCN2C(=O)CSC2=O)c1	2	5	5	3	.	4	4	i
C[C@@H]1CCCCO[C@@H](CN(C)C(=O)c2ccncc2)[C@@H](C)CN([C@H](C)CO)C(=O)c2cc(N(C)C)ccc2O1	.	.	4[16.7 µM]	.	-7	-2	1	.
Cc1ccc(C2=NN=C(NC(=O)CSc3nc(C)cc(C)n3)SC2)cc1	6	-4	15	0	.	.	.	i
CC(C)C[C@H](NC(=O)c1nc[nH]c1C(=O)NCc1ccc(CNC(=O)OC(C)(C)C)cc1)C(=O)OCc1ccccc1	-2	8	11	-4	5	-1	-1	i
Cc1ccc2c(c1)N(CC(=O)NCCc1ccccc1)C(=O)c1cccnc1O2	-5	-17	-11	5	-2	2	0	i
CC(=O)C1C(c2ccccc2)c2c(noc2C)CC1(C)O (stereo not drawn)	-7	-3	-8	8	-14	2	3	i
c1ccc2c3c(c(CN4CCCCC4)cc2c1)COC3	-11	-2	-2	6	-19	0	4	i
CC1CC/C(=N/Nc2ccccc2)C(=O)N1 (stereo not drawn)	.	-3	2	-2	.	0	4	i

The list is partial; count on the stated rates, not on these rows.
